# Bioassay records (PubChem)
# TRPML1 agonist = qHTS for Agonists of the Human Mucolipin Transient Receptor Potential 1 (TRPML1); activation, % (test concentration not listed); AID 624414, 2012; 410,000 compounds, 0.12% hits; TRPML1-expressing cells, Ca2+ dye fluorescence, FDSS; host cell line not named in the record; reference of the full effect not given here; Mucolipin-1 (Homo sapiens), Q9GZU1; in the data active = activation above about 50%; inconclusive = about 30% to 50%; inactive = below about 30%; note: 0% is about no effect; the text of the record puts the active cut at 80%
#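 Tetracycline-induced TRPML1-DL cells are seeded and incubated overnight before loading with a no-wash Ca2+ dye and quencher. Agonist activity is taken from the 110 s fluorescence read following compound pin-transfer on an FDSS, before EC80 54-4 challenge.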
# CtBP-E1A inh = qHTS Assay for Inhibitors of the CtBP/E1A Interaction. CtBP / adenovirus E1A interaction (AlphaScreen). activity change, % (concentration not given with the values). 340,000 compounds, 0.49% hits. AID 651724, 2012. AlphaScreen GST-E1A/His-CtBP binding, 1536-well; active compounds read low; control for the full effect not named in the record; in the data active means activity change below about -65%; inconclusive means about -30% to -65%; inactive means above about -30%; note: % is set by controls: 0 for no effect and ±100 for the full control effect
#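 Steps: dispense buffer (Tris pH 8.0, NaCl 300 mM, TCEP 1 mM, BSA, Tween 20); add 5X protein mix (GST-E1A, His-CtBP, 125 nM each); pin 23 nL compound; 2 h at 37 °C, dark; add 5X beads (50 ug/mL); 1 h; read.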
# PINK1 modulator = A Quantitative High throughput Screen to Identify Chemical Modulators of PINK1 Expression | Potency, µM (titrated, usually from 76.6 µM), inactives show at the top dose activation (PINK1 increase), actives largely listed as activators | 410,000 compounds, 0.2% hits | PINK1 immunofluorescence, high-content cytometry, 24 h; active = well fitted activation curve with a large enough effect; inconclusive = small, poorly fitted or top-dose-only effect; inactive = flat fitted curve, though single readings scatter; cell line not stated here;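 note: potency is the fitted concentration of half-maximal effect; % of control where 0% means no effect; nearly all actives have a fitted effect of over 65% in size; a mitochondrial uncoupler was the plate control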
#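 Stable cell line treated 24 h with compounds at 5 concentrations (CCCP controls), then fixed and immunostained for PINK1 plus nuclear and cell stains; PINK1 immunofluorescence quantified by laser-scanning microplate cytometry.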
# D2 ag = Beta-Arrestin HTS for Positive Allosteric Modulators of the Human D2 Dopamine Receptor: Agonists; activation, % (concentration not given with the values); DiscoveRx PathHunter D2 beta-arrestin, luminescence, 90 min; 100% = 57 uM dopamine signal; D(2) dopamine receptor (Homo sapiens), P14416; AID 624465, 2012; 360,000 compounds, 0.084% hits; in the data active = activation above about 40%; inconclusive = about 15% to 40%; inactive = below about 15%; note: the text of the record calls up to 30% inactive
#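 DiscoveRx PathHunter D2 beta-arrestin cells (2,100/well) attached overnight, then compound-stimulated 90 min at 37 C in HBSS/10 mM HEPES/0.1% Tween-20 buffer; beta-galactosidase complementation read by luminescence after 1 h at ambient temperature. Dopamine 57 uM final (EC100) as control.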
# Six1-Eya2 inh = qHTS Assay for Inhibitors of the Six1/Eya2 Interaction | Homeobox protein SIX1 (Homo sapiens) + Protein phosphatase EYA2 (Homo sapiens), … | AlphaScreen GST-Six1/His-Eya2 binding, biochemical; active compounds read low; control for the full effect not named in the record | activity change, % (concentration not given with the values) | 360,000 compounds, 0.56% hits | AID 651725, 2012; in the data active = activity change below about -65%; inconclusive = about -30% to -65%; inactive = above about -30%; note: % is set by controls: 0 for no effect and ±100 for the full control effect
# Target sequence (O00167 whole entry, looked up): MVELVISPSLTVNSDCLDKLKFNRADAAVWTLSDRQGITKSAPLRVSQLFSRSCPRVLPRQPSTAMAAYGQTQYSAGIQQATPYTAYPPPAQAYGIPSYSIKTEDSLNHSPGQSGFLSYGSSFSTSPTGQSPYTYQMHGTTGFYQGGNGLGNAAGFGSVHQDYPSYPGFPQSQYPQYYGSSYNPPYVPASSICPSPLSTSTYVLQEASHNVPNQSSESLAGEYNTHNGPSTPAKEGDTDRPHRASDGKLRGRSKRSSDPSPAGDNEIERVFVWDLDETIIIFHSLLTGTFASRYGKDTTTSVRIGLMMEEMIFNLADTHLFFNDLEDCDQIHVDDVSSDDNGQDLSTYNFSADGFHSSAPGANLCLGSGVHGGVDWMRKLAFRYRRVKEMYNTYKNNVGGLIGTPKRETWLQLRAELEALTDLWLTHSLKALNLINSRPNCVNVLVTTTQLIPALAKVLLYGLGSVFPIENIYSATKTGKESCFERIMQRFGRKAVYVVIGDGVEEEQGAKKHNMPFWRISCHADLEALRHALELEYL
# Target sequence (Q15475 whole entry, looked up): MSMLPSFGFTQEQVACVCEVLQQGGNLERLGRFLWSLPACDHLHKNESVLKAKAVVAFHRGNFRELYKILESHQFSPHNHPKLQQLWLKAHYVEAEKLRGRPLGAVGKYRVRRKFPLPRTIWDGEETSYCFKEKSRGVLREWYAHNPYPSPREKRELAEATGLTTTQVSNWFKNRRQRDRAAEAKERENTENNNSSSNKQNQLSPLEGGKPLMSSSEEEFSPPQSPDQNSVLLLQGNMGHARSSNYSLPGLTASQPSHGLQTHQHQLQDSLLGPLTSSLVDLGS
#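 GST-Six1 + His-Eya2 (5X stock: 250/500 nM); Tris pH 8.0, 300 mM NaCl, 0.05% BSA, 0.02% Tween 20; GSH donor/Ni acceptor beads; 1 h 37 °C dark; AlphaScreen readout.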
# D2 potentiator = Beta-Arrestin HTS for Positive Allosteric Modulators of the Human D2 Dopamine Receptor: Potentiators; DiscoveRx D2 beta-arrestin cells, luminescence, 90 min; 100% = 57 uM dopamine signal; potentiation, % (no concentration beside the values); 360,000 compounds, 0.23% hits; active = potentiation of 50% or more; inconclusive = 30% to 50%; inactive = 30% or less;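 note: compound concentration not given in the record; tested on top of an EC20 dose of dopamine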
#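 D2 cells co-treated with compound plus 50 nM dopamine (EC20) for 90 min at 37 deg C to detect potentiation. Beta-arrestin recruitment was read as enzyme-fragment luminescence after 1 h at ambient temperature. Full response was set by 57 uM dopamine.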
# The depositor's hits bear a star; ? = inconclusive; . = not tested or not shown; [ ] = remark or other dose.
SMILES,TRPML1 agonist,CtBP-E1A inh,PINK1 modulator,D2 ag,Six1-Eya2 inh,D2 potentiator
O=C(O)c1ccc(NC(=S)NC(=O)c2cccnc2)cc1,0.2,6,-0.9%,-8.5,5,-9
COC(CN(C)C(C(=O)NC1CCCCC1)c1ccccc1)OC (stereo unspecified),-0.1,-1,-0.8%,-0.6,1,0
CC(C)c1cccc(C(C)C)c1OC(=O)[C@H]1OC(c2ccc(Br)cc2)=C[C@@H]1c1ccc(Br)cc1,23,-1,?,5.4,-3,7
O=C(c1cc(F)c(F)cc1Cl)N1CCCCC1,0.5,1,3.1%,-1.4,7,-15
O=c1[nH]c(CN2CCN(CCO)CC2)nc2ccccc12,-0.6,-2,-1.2%,-2.0,2,13
O=C(CNc1ccccc1N1CCCC1=O)Nc1cc(Cl)ccc1-n1cncn1,0.0,27,0.7%,1.0,7,1
Cc1nc2ccccc2n1C(=O)N1CCOCC1,0.0,-1,-0.6%,-6.2,1,-19
COc1ccc(-n2ncc3c(=O)n(CC(=O)N4c5ccccc5CC4C)cnc32)cc1 (stereo unspecified),2.9,-8,-3.0%,-2.2,2,2
COc1ccc(NC2CCCN(C(=O)c3ccc(C)c(N4CCNC4=O)c3)C2)cc1 (stereo unspecified),-0.5,-2,-3.2%,-0.4,-3,7
CCOC(=O)CSc1n[nH]c(=S)s1,0.0,2,1.6%,-3.1,10,-25
Cc1cc(N2CCN(S(=O)(=O)c3ccc(Cl)cc3)CC2)c2ccccc2n1,1.4,-9,-6.9%[38.3 µM],0.1,-10,6
CS(=O)(=O)N(CC(=O)NCCSCc1c(F)cccc1Cl)c1ccc2c(c1)OCO2,-1.6,2,0.0%,-0.5,-2,-11
Cc1nnc(NC(=O)CCn2c(=O)oc3ccccc32)s1,-0.6,-3,0.2%,1.1,-3,-6
Clc1ccc(-c2noc(CN3CCN(c4ccccc4)CC3)n2)cc1,0.6,0,1.9%,-6.5,5,-11
Cc1cc(=O)oc2cc(OCC(=O)NCC3CCCO3)ccc12 (stereo unspecified),0.4,.,-0.6%,-0.1,9,-7
CCCn1nc2cc(C(=O)NCCc3cccs3)ccc2c1OCC,-0.2,.,1.8%,-2.6,-5,-15
COC(/C=C/Nc1ccc(C)c(C)c1)=C(C#N)C#N,1.6,0,-2.9%[38.3 µM],-1.3,5,0
Cn1cccc1/C=N/NC(=O)c1cccc(OC(F)(F)C(F)F)c1,-0.7,-10,-1.4%,-3.5,-9,-11
CC(C)(C)NC(=O)CSc1nsc(SCC(=O)NC(C)(C)C)c1C#N,1.2,1,-1.6%,4.2,8,-5
CCOc1nc(N=C(N)N)nc2c(C)cccc12,-0.6,-28,-0.8%,-3.7,?,-14
NC(=S)Nn1c(CCC(=O)O)ccc1-c1ccccc1,-0.1,5,-1.4%,1.0,5,-16
COc1ccc(CNC(=O)CSc2nnc(C3CC3)n2C2CC2)cc1,-0.2,17,0.1%,-0.7,-1,-1
Cc1cc(C)cc(NC(=O)CCCSc2nc3ccccc3[nH]2)c1,1.1,-7,-1.3%,-0.6,-11,-26
CCC(=NCc1ccc(Cl)c(Cl)c1)c1nc(-c2ccco2)oc1O,-0.5,-21,11%,0.4,?,11

# Two compounds from above, limited to CtBP-E1A inh.
Compound | CtBP-E1A inh
CC(C)(C)NC(=O)CSc1nsc(SCC(=O)NC(C)(C)C)c1C#N | 1
CCOc1nc(N=C(N)N)nc2c(C)cccc12 | -28

# New compounds follow
SMILES,TRPML1 agonist,CtBP-E1A inh,PINK1 modulator,D2 ag,Six1-Eya2 inh,D2 potentiator
CCN(C(=O)CN1C(=O)/C(=C/c2ccccc2F)SC1=S)C1CCS(=O)(=O)C1 (stereo unspecified),0.4,.,4.4%,-1.4,3,-6
O=C(NCc1ccco1)/C(=C\c1cccc([N+](=O)[O-])c1)NC(=O)c1ccco1,-0.8,1,0.3%,0.6,-1,-4
COc1ccccc1C1C(C(C)=O)=C(O)C(=O)N1c1ccc(O)cc1 (stereo unspecified),-0.4,3,-0.6%,0.6,-6,-2
CCN(CC)S(=O)(=O)c1ccc2[nH]c(=O)cc(C(=O)NCC(c3ccco3)N3CCCC3)c2c1 (stereo unspecified),0.0,2,2.5%,-0.7,-1,-6
COc1cc(OC)cc(C(=O)N2CCN(Cc3cccc(F)c3)CC2)c1,1.1,0,6.5%[38.3 µM],-1.1,-1,-13
O=C(Cc1cccc(C(F)(F)F)c1)N1CCCC1,-0.6,0,1.7%,-2.3,22,-4
Nc1nnn(CC(=O)N/N=C/c2ccccc2Cl)n1,0.9,5,14%,0.0,-2,-7
COc1ccc(N(C(=O)CNC(=O)c2ccco2)C(C(=O)NC2CCCC2)c2ccco2)cc1 (stereo unspecified),-1.4,0,1.5%,-4.1,5,-6
CCN(C(=O)CSc1nnc(-c2ccccc2Br)o1)C1CCS(=O)(=O)C1 (stereo unspecified),0.0,0,-1.3%,-0.6,0,-4
CCCCn1c(NCc2ccncc2)nc2ccccc21,-0.8,3,0.8%,0.5,-5,-5
COc1ccccc1-n1cnnc1SCC(=O)NC1CCCC1,-0.2,.,-1.2%,-2.8,4,-5
CN1CCC=C(C(=O)N2c3ccccc3Sc3ccc(Cl)cc32)C1,13,-1,1.9%,-2.3,-22,-5

# Next part, starting with the last seven of the part before.
SMILES,TRPML1 agonist,CtBP-E1A inh,PINK1 modulator,D2 ag,Six1-Eya2 inh,D2 potentiator
O=C(Cc1cccc(C(F)(F)F)c1)N1CCCC1,-0.6,0,1.7%,-2.3,22,-4
Nc1nnn(CC(=O)N/N=C/c2ccccc2Cl)n1,0.9,5,14%,0.0,-2,-7
COc1ccc(N(C(=O)CNC(=O)c2ccco2)C(C(=O)NC2CCCC2)c2ccco2)cc1 (stereo unspecified),-1.4,0,1.5%,-4.1,5,-6
CCN(C(=O)CSc1nnc(-c2ccccc2Br)o1)C1CCS(=O)(=O)C1 (stereo unspecified),0.0,0,-1.3%,-0.6,0,-4
CCCCn1c(NCc2ccncc2)nc2ccccc21,-0.8,3,0.8%,0.5,-5,-5
COc1ccccc1-n1cnnc1SCC(=O)NC1CCCC1,-0.2,.,-1.2%,-2.8,4,-5
CN1CCC=C(C(=O)N2c3ccccc3Sc3ccc(Cl)cc32)C1,13,-1,1.9%,-2.3,-22,-5
CCc1ccc(-c2cc(C)no2)cc1S(=O)(=O)Nc1cccc(CN2CCCC2)c1,-0.1,2,-1.2%,-4.5,-1,-28
Cc1cccc(-c2c(NC(=O)c3ccco3)oc3ccc(Cl)cc3c2=O)c1,-0.3,-24,2.2%,0.8,4,24
CC1CN(N=Cc2ccc([N+](=O)[O-])o2)C(=N)O1 (stereo unspecified),-0.9,-11,2.6%,1.1,-5,1
CCOc1ccc2oc(C(=O)NCC(c3ccco3)N(C)C)c(C)c2c1 (stereo unspecified),-0.2,8,-0.2%,-2.2,-13,-35
O=C(Cn1c(=O)n(-c2cccc(Cl)c2)c(=O)n1CC(=O)N1CCCCC1)N1CCCCC1,0.4,-6,-2.6%,-3.9,-14,-24
O=C(CCNS(=O)(=O)c1ccc(OC(F)(F)F)cc1)NC1CC1,-0.1,-3,2.8%,-5.6,2,-2
CCc1nc2ccc(C(=O)Nc3ccc(OC)c(OC)c3)cn2c1N(C)C(=O)Cc1ccccc1,-0.8,7,-0.5%,-4.0,1,-3
CCOC(=O)c1cnn(C)c1NC(=O)c1ccc([N+](=O)[O-])cc1,0.0,-1,0.0%,-5.6,8,-4
Brc1ccc(-c2noc(-c3ccccn3)n2)o1,1.4,-4,0.4%,-1.8,-3,4
Cc1cccc(S(=O)(=O)c2c(N)n(/N=C/c3ccco3)c3nc4ccccc4nc23)c1,1.0,-26,5.2%[38.3 µM],-1.2,-22,-3
CN(C)c1ccc(C2OC(=O)C(C)(C)C(=O)C2(C)C)cc1 (stereo unspecified),-0.5,2,8.0%,-2.1,-6,-1
COc1ccc(Oc2cc(C(F)(F)F)cnc2C(N)=O)cc1,-0.2,4,-0.8%,3.4,3,-2
O=S1(=O)N=C(N2CCOCC2)c2ccccc21,0.8,-3,-1.3%,0.0,13,-4
Cn1c(=O)c2c(-c3ccccc3)n(-c3cc([N+](=O)[O-])ccc3N)cc2n(C)c1=O,-0.5,-7,2.1%,-1.0,-3,-3
COP(=O)(OC)c1nc(-c2cccc3ccccc23)oc1NCCc1ccccc1,2.0,0,-0.6%,-10,24,-9
CC(C)[C@H](NC(=O)c1ccc([N+](=O)[O-])cc1Cl)C(=O)N1CCN(C/C=C/c2ccccc2)CC1,-0.1,-7,-1.5%,3.1,-1,-11
O=C1N[C@H](Cc2ccccc2)COC(=O)[C@H](Cc2ccc(F)cc2)C/C=C\C[C@@H]1CC(=O)N(CCO)Cc1ccccc1,0.0,-1,8.1%,-3.1,-5,-13
COc1ccc(OCC(=O)NNC(=O)C(=O)Nc2ccccc2)cc1,1.8,-1,-0.4%,-3.8,4,-4
CN(c1ccc(C(=O)N/N=C/c2cccc([N+](=O)[O-])c2)cc1)S(=O)(=O)c1ccccc1,-0.2,14,1.1%,0.5,2,0
CCn1ncc(S(=O)(=O)N2CCN(c3cccc(OC)c3)CC2)c1C,0.0,11,1.6%,-1.0,0,-9
NC1=NN=C(N2N=C(c3ccco3)CC2(O)C(F)(F)F)n2ncnc2C1 (stereo unspecified),0.4,21,0.5%,3.0,-71*,8
Cc1ccc(CNC(=O)CNC(=O)[C@@H]2Cc3ccccc3CN2C(=O)OC(C)(C)C)cc1,-0.4,7,0.6%,1.0,0,-7
O=C(Nc1ccc(F)cc1)C(NC1CCCCC1)c1ccccc1 (stereo unspecified),0.7,4,0.3%,-4.4,5,-15
Cc1ccc(NC(=O)CCC(=O)NNC(=S)Nc2ccccc2)c(C)c1,-0.5,13,-1.1%,-7.9,-1,-16
O=C(NNC(=O)c1ccccc1O)c1ccc(Cl)cc1,-0.5,-5,-1.1%,-3.2,-2,-21
O=C(O)c1ccc(-n2ccnc2)c([N+](=O)[O-])c1,0.3,12,1.4%,-1.0,5,-5
CCOc1ccc(-c2csc(/C(C#N)=C\c3ccc(O)c([N+](=O)[O-])c3)n2)cc1,-0.8,-5,?,-6.1,?,1
COc1ccc(OCC(=O)Nc2ccc(S(=O)(=O)N3CCCC3)cc2)cc1,-0.1,-7,-0.3%,2.2,-2,-4
C/C(Cl)=C/Cc1c(C)[nH]c2ccc(C)cc2c1=O,-1.1,7,4.9%,-2.7,5,2
Cn1c(CSc2ncccn2)nnc1SCC(=O)N1CCCc2ccccc21,3.0,3,-9.7%[38.3 µM],-0.7,-1,-7
